# Mtb growth: M. tuberculosis H37Rv growth inhibitors, H37Rv strain (AID 1626) | inhibition, % at 10 µM; hits with a dose series show IC50 in µM | M. tuberculosis H37Rv growth inhibition; higher % means a stronger effect | 220,000 tested, 0.95% active;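 active means confirmed in a dose series; inconclusive means inhibition above 80% but not taken into the dose series; inactive means below 80% or under 30% at every dose of the series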;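 further: bacteria incubated seven days before Alamar blue readout; 0% = bacteria only wells and 100% = bacteria with antibiotic wells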
# Arbovirus anti: antivirals against arbovirus infection | arbovirus infection cell-based antiviral screen | inhibition, % at 10 µM | 200,000 tested, 0.37% active | AID 1251;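 active means inhibition from about 30%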;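 further: bluetongue infection of BSR cells; cell survival read as ATP light after 72 h; 0% = infected wells without compound and 100% = uninfected wells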
# YopH inh: blocks Yersinia enterocolitica YopH tyrosine phosphatase; fluorescence Ex485/Em525; inhibition, %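 (about 10 µM by stock and volumes)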; 140,000 tested, 0.16% active; AID 898;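 active means inhibition of 50% or more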;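 further: controls were vehicle for no effect and minimum signal wells for full effect; inactives centre near -20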
# Mtb betalactam: beta-lactam sensitization of Mtb H37Rv; M. tuberculosis H37Rv growth with meropenem, percent inhibition; hits of this screen are not shown here; inhibition, % at 25 µM; 330,000 tested, 0.27% active; AID 434955;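 active means about 74% or more and at least 40 points above the plate without the antibiotic, then above 30% in a dose series; inconclusive means first-round hits that could not be retested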;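 further: growth measured after seven days incubation then overnight dye step; 0% = bacteria only wells and 100% = bacteria with antibiotic; twin plates without the antibiotic show which effects depend on it; some results filed as inactive read as strong as hits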
# RecA intein inh: Mtb RecA intein splicing inhibition; cell-free RecA intein splicing, fluorescence; P9WHJ3; inhibition, %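 (about 9 µM by stock and volumes)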; 290,000 tested, 0.75% active; in the data active means inhibition above about 30%; inconclusive means no clear call, values can overlap the other calls;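 further: 0% = vehicle wells and 100% = reference inhibitor control wells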
# Target sequence (P9WHJ3 whole entry, looked up): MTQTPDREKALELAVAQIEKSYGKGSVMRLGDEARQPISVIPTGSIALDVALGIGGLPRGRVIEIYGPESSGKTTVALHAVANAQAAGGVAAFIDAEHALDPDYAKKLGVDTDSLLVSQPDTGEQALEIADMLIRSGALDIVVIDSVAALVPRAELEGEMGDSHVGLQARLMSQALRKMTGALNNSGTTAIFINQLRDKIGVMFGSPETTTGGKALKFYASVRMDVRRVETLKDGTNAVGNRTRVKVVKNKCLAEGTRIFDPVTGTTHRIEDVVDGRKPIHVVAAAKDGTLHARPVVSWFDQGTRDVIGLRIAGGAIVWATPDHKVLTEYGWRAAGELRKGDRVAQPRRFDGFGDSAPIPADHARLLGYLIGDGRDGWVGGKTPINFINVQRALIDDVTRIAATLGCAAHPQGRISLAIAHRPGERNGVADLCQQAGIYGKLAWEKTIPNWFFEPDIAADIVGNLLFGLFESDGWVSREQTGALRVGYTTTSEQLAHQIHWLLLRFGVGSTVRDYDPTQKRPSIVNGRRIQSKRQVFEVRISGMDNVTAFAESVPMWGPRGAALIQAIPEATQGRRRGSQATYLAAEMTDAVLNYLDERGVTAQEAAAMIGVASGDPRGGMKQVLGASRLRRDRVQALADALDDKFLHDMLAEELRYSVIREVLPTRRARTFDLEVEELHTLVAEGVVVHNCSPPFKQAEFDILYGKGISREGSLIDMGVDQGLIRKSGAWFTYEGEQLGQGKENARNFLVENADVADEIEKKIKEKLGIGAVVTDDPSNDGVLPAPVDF
# Arbovirus anti repeat: recorded beside Arbovirus anti, whose call it bears; inhibition, %; measured here: 10K subset replicate screen; many hits read low in the repeat;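 first of two repeat runs on a subset; 0% = infected and 100% = uninfected wells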
# * = called active by the depositor; ? = inconclusive; · = no result given. Only part of the results is shown (hit frequency here may not be typical).
SMILES,Mtb growth,Arbovirus anti,YopH inh,Mtb betalactam,RecA intein inh,others
Cc1cc(Cl)ccc1N1C(=O)CC(SCCC(=O)O)C1=O (centres undefined),-11%,4,-9,-8,3.0,
O=C(CCn1cccc1)Nc1cc(F)ccc1F,-5%,-8,-36,-10,-0.7,
CCCCNc1c(-c2cccc(-c3ccc(OC)cc3)c2)nc2ccc(C)cn12,·,·,·,98,0.7,
CCCCSc1nnc2[nH]c(=O)cc(N)n12,-3%,7,-17,2,-0.9,
CC(C)OC(=O)C(C#N)c1nc2ccccc2nc1N1CCN(Cc2ccccc2)CC1 (centres undefined),10%,-3,0,-4,-27,
N#Cc1cn(Cc2ccncc2)c(=O)[nH]c1=O,3%,-1,·,-3,-2.9,
CC(C)c1ccc(S(=O)(=O)N2CCN(C(=O)CCNS(=O)(=O)c3ccccc3F)CC2)cc1,·,·,·,-8,2.8,
CCc1nccn1S(=O)(=O)c1ccc2ccccc2c1,-4%,-2,-19,-8,1.2,Arbovirus anti repeat=2
CC(C)Oc1ccc(CCC(=O)NNC(=O)c2ccccc2C(=O)O)cc1,·,·,·,-1,-0.6,
CCC(C)NS(=O)(=O)c1cc2c3c(c1)CCC(=O)N3CCC2 (centres undefined),·,·,·,-2,1.4,
CCCCCCc1cc2cc(C(=O)NCc3ccccc3)c(=N)oc2cc1O,-13%,22,-3,100,·,
CC1CCCCC1NS(=O)(=O)c1ccc(S(=O)(=O)N2CCCC2)cc1 (centres undefined),-12%,11,2,9,2.4,
Cc1cc(OCC(O)CN)ccc1Cl (centres undefined),-6%,-8,·,-7,1.2,
CCSc1nnc(NC(=O)c2c(C)noc2C)s1,·,·,·,-3,-3.4,
C/C(=N\NC(=O)CC(C)C)c1ccc(N2CCCCC2)cc1,10%,-4,-9,0,-1.0,
Cc1ncoc1C(=O)N1CCc2c([nH]c3ccccc23)C1C1CCCCC1 (centres undefined),12%,1,·,0,-1.7,
FC(F)(F)c1cc(-c2ccccc2)nc(NCc2cccnc2)n1,-3%,-1,-41,60,-0.7,
O=C(NCCCn1ccnc1)Nc1cccc2ccccc12,1%,-3,-21,-5,·,
COc1ccc(NC(=O)NCc2ccc3c(c2)OCO3)cc1,4%,-4,·,-3,-0.5,
CC(C)n1c(=S)[nH]c2cc(C(F)(F)F)ccc21,1%,·,·,-13,5.7,
COC(=O)CCC(=O)OC1(C)C(=O)C=C2C=C(C3CC3)N(Cc3ccc4c(c3)OCO4)C=C2C1=O (centres undefined),-3%,·,·,1,0.2,
S=C(NN=C1CCCCCC1)Nc1ccc(Cl)cc1,-9%,-4,-17,14,3.6,
C[C@]12CCC3c4ccc(OCC(=O)O)cc4CCC3C1CCC2=O (some centres undefined),·,·,·,1,-0.6,
O=C(Nc1ccc2c(c1)C(=O)NC2=O)c1ccc(S(=O)(=O)N2CCCC2)cc1,2%,-3,·,4,4.5,
Cc1cc2nc(/C(C#N)=C\c3ccc(-c4ccccc4C(=O)O)o3)[nH]c2cc1C,·,·,·,7,-6.4,

# Arranged by count of non-hydrogen atoms (rising): part of the list above
SMILES,Mtb growth,Arbovirus anti,YopH inh,Mtb betalactam,RecA intein inh,others
CCCCSc1nnc2[nH]c(=O)cc(N)n12,-3%,7,-17,2,-0.9,
C[C@]12CCC3c4ccc(OCC(=O)O)cc4CCC3C1CCC2=O (some centres undefined),·,·,·,1,-0.6,
Cc1cc2nc(/C(C#N)=C\c3ccc(-c4ccccc4C(=O)O)o3)[nH]c2cc1C,·,·,·,7,-6.4,

# The list continues:
SMILES,Mtb growth,Arbovirus anti,YopH inh,Mtb betalactam,RecA intein inh,others
C=CCn1cc(C(=O)N2CCc3ccccc3C2)c(=O)c2cc(S(=O)(=O)N(CC)CC)ccc21,-5%,8,-28,-6,-0.5,
O=C(Nc1ccc(O)cc1)c1cc2ccccc2c(=O)s1,-4%,-22,·,-1,0.6,
COC(=O)CSc1nnc(C)n1-c1cccc(C#N)c1,-5%,4,-32,2,1.5,
O=c1nc(N2CCOCC2)ccn1-c1nc(-c2ccccc2)oc1-c1ccccc1,-6%,2,-40,-1,1.7,
COc1ccc(N2CC(C(=O)Nc3ncccc3C)CC2=O)cc1 (centres undefined),-7%,4,-12,-6,-6.7,
Cc1onc(-c2ccccc2)c1C(=O)NC(CC(=O)O)c1ccc(OC(C)C)cc1 (centres undefined),·,7,-28,-7,0.3,
CC12CCC3C(CCC4C/C(=N/O)CCC43C)C1CCC2O (centres undefined),-5%,1,-27,1,-3.8,
CSc1nc(C)cc(OCC#N)n1,-2%,3,-1,-3,0.0,
Cc1cccc(C)c1-n1c(C)nn(-c2ncc(C(F)(F)F)cc2Cl)c1=O,-2%,2,·,-7,2.4,
COc1cccc(NC(=O)C2C3C=CC4(O3)C2C(=O)N(CCN2CCCCC2)C4C(=O)NC2CCCCC2C)c1 (centres undefined),·,·,·,-3,0.8,
C=CCC(C(=O)c1ccccc1)[N+](C)(C)CC=C (centres undefined),-3%,0,·,-6,2.6,
COc1ccc(CNc2ccc(C)c(C)c2)c(OC)c1OC,-7%,-6,·,0,4.0,
O=C(CN1CCOc2ccccc21)NCc1ccc(F)cc1,·,-11,-41,-2,-0.6,Arbovirus anti repeat=-4
CCCC(CCC)C(=O)Oc1cc(C)[nH]c(=O)c1[N+](=O)[O-],·,3,·,12,-1.3,
O=C(Nc1ccccc1Cl)N1CCSc2ccccc21,5%,10,·,0,8.1,
Clc1ccc(/C=N/NC(=Nc2ccccc2)c2ccccn2)c(Cl)c1,·,7,-32,98,12,
CCCc1cc(=O)oc2cc(C)cc(OC(C)C(=O)NCc3ccncc3)c12 (centres undefined),·,·,·,9,1.0,
Cc1ccc(NC(=O)CN(C)C(=O)CCCN2C(=O)c3ccccc3C2=O)cc1,-10%,5,4,-10,1.7,
Cc1nc(NCCc2ccccc2F)c(C#N)c(C)c1[N+](=O)[O-],21%,2,-38,12,0.1,
CCN(C(=O)COC(=O)c1c(NC(C)=O)sc(C)c1C)C1CCS(=O)(=O)C1 (centres undefined),-3%,-5,-13,1,1.4,
CC1CN(C(=O)c2cc3cc(Cl)ccc3[nH]2)CC(C)O1 (centres undefined),·,·,·,-3,-3.2,
Cc1ccc(CNC(=O)COC(=O)c2ccc(Br)cc2)cc1,9%,4,-24,-1,-2.0,
O=C(O)c1cnc(-c2ccccc2)nc1Sc1cccc(Cl)c1,-13%,13,-40,-1,6.7,
O=C(COC(=O)c1cccnc1Cl)c1cccc(Cl)c1,-5%,6,-42,-4,-1.7,
CNc1nc(OCCNC(=O)Nc2ccccc2)nc(N2CCOCC2)n1,-5%,-19,-16,3,4.2,
SMILES,Mtb growth,Arbovirus anti,YopH inh,Mtb betalactam,RecA intein inh,others
CCN(CCO)Cc1csc2ccc(Cl)cc12,3%,10,-19,-2,-3.1,
CCOc1ccccc1C1SCC(=O)Nc2c1c(=O)[nH]n2C(CC)CC (centres undefined),-9%,5,-44,2,2.4,Arbovirus anti repeat=1
CCOc1ccccc1CN1CCNC(=O)C1CC(=O)NCc1cc(C)n(C)n1 (centres undefined),·,·,·,-7,1.1,
O=C(Nc1nc2cc3c(cc2s1)OCCO3)c1ccco1,·,·,·,?,0.9,
Cc1cc(NCc2ccccn2)n2nc(C)c(-c3ccccc3)c2n1,?,·,·,99,0.8,
CCCc1cc(C(=O)N2CCC(N3CCC(C(=O)NC(C)C)CC3)CC2)n(C)n1,-4%,-2,·,-3,-3.2,
CCn1c(-c2c(Cl)c(C)nn2C)n[nH]c1=S,8%,5,-17,-7,0.8,
CCOC(=O)c1cc(-c2nnc(-c3ccc(Oc4ccccc4)cc3)o2)c(C)nc1C,-10%,2,-30,0,2.9,
N#Cc1ccc(C(=O)Nc2ccc3ccccc3c2)cc1,·,·,·,38,1.5,
NC(=O)N1CCc2ccccc21,0%,8,·,0,-4.5,
COc1ccc(-c2cnnc(N/N=C/C(C)=C/c3ccccc3)n2)cc1,5%,6,20,2,-3.1,
Cc1ccc(SCC(=O)c2ccc[nH]2)cc1,-1%,7,·,-11,2.0,
CC1CC1C(=O)Nc1cc(S(=O)(=O)N2CCOCC2)ccc1N1CCCC1 (centres undefined),-7%,-5,·,-4,-2.2,
Clc1ccc(CSCCc2ccncc2)cc1,·,17,-1,32,5.5,
CCOC(=O)c1[nH]c(C)c(C(=O)NCCc2ccc(OC)cc2)c1C,1%,-3,-31,5,-0.8,
CCCCC(=O)Nc1ccc(C(=O)c2ccccc2)cc1,73%,-10,·,-1,1.7,
CCOC(=O)c1ccccc1NC(=O)c1ccccc1N(C)S(C)(=O)=O,·,-2,9,-7,-0.8,
Cc1nnc(SCC(=O)Nc2ccc(F)cc2)n(N)c1=O,·,·,·,1,-6.5,
COC(=O)c1[nH]c2cccc(OC)c2c1NC(=O)C(C)N1CCC(C)CC1 (centres undefined),-1%,-4,-14,·,·,
COC(=O)CN(c1nc(C)c(Cl)c(OC)n1)S(=O)(=O)c1ccc(C)cc1,-2%,-2,-15,-9,-1.8,
CCOC(=O)C1=C(c2ccccc2)N=C2SCC(=O)N2C1c1ccc2c(c1)OCO2 (centres undefined),-15%,-4,-18,-4,-15,
Cn1c(O)c(/C=N/NC(=O)c2ccncc2)c(=O)[nH]c1=S,?,·,·,99,1.5,
Cc1cccc(COc2ccc(/C(O)=C3\C(=O)C(=O)N(CCN(C)C)C3c3ccncc3)cc2)c1 (centres undefined),-11%,-2,-38,1,2.6,
Cc1ccc(NC(=O)COC(=O)CCc2ccc(S(=O)(=O)N3CCOCC3)cc2)cc1C,-3%,-5,·,-3,2.3,
COc1cc(C(=O)OCC(=O)c2cc(C)n(CC3CCCO3)c2C)ccc1OCC(=O)N1CCOCC1 (centres undefined),·,·,·,2,-0.8,

# Structures from the list above containing a CF3 group:
SMILES,Mtb growth,Arbovirus anti,YopH inh,Mtb betalactam,RecA intein inh,others
FC(F)(F)c1cc(-c2ccccc2)nc(NCc2cccnc2)n1,-3%,-1,-41,60,-0.7,
CC(C)n1c(=S)[nH]c2cc(C(F)(F)F)ccc21,1%,·,·,-13,5.7,
Cc1cccc(C)c1-n1c(C)nn(-c2ncc(C(F)(F)F)cc2Cl)c1=O,-2%,2,·,-7,2.4,

# The list continues.
SMILES,Mtb growth,Arbovirus anti,YopH inh,Mtb betalactam,RecA intein inh,others
Cc1cc(Br)ccc1NC(=O)CN(C)C(=O)CN1C(=O)NC2(CCCC2)C1=O,·,·,·,-9,-0.9,
O=C(NCc1ccco1)C(c1ccncc1)N(CCC1=CCCCC1)C(=O)Cn1nnc2ccccc21 (centres undefined),11%,-6,-12,3,-6.8,
COc1ccc(CCn2c(SCC(=O)Nc3cc(C)on3)nc3ccsc3c2=O)cc1OC,·,1,-6,-2,·,
CC(C)CN1CCC(=O)N(CCSc2ccc(Br)cc2)CC1,4%,·,·,-4,-0.2,
CCOc1ccc(C(=O)NCC(=O)N2CCN(C/C=C/c3ccccc3)CC2)cc1OCC,·,·,·,-1,-2.1,
CCOC(=O)N1CCN(c2ncnc3c2cnn3-c2ccc(Cl)cc2)CC1,-12%,-7,12,·,0.0,
CC/C(=N/NC(=O)CCC(=O)Nc1ccccc1OC)c1ccccc1,3%,2,-13,-8,-1.2,
Cc1cc(C)n(C2CC(=O)N(c3ccccc3)C2=O)n1 (centres undefined),-1%,-4,-8,5,4.5,
Cc1cccc(C)c1NC(=O)CNC(=O)c1cncc(Br)c1,·,·,·,-7,0.2,
Cc1nn(C)c(C)c1S(=O)(=O)N1CCC(C(=O)NC(C)c2ccccc2)CC1 (centres undefined),-7%,0,-15,-7,0.7,
CC12CC[C@H]3[C@@H](CCC4(O)C[C@H](O)CCC34/C=N/NC(=O)c3ccccc3O)C1(O)CCC2C1=CC(=O)OC1 (some centres undefined),0%,·,·,-6,-0.7,
Cc1n[nH]c(C)c1CN(C)C(=O)C1CCC(=O)N(CC2CCCCC2)C1 (centres undefined),·,·,·,2,2.2,
CCOC(=O)c1cc(C#N)c(SCC(=O)Nc2ccc(C(C)=O)cc2)[nH]c1=O,-10%,·,·,8,4.7,
N/C(=N\NS(=O)(=O)c1ccc(Cl)cc1)c1ccccn1,·,·,·,6,0.0,
CNC(=O)CSc1nc(-c2ccccc2)c(-c2ccccc2)[nH]1,4%,-7,-13,-3,0.8,
COc1ccc(-c2csc(NC(=O)CN3C(=O)NC4(CCCC4)C3=O)n2)cc1OC,·,·,·,-1,-1.1,
COc1cc(/C=N/NC(=O)c2cccc(S(=O)(=O)N3CCCCC3)c2)cc(Br)c1O,-5%,6,·,-2,-0.8,
Cc1ccc(S(=O)(=O)NCC2CCC(C(=O)NCc3ccco3)CC2)cc1 (centres undefined),2%,3,5,-1,1.2,
O=S(=O)(NC1CCN(Cc2ccccc2)CC1)c1cccc2cccnc12,-3%,12,1,-6,-1.2,
CCc1ccc(NC(=O)C/C(C)=N/NC(=O)COc2ccc(C)cc2Br)cc1,·,·,·,60,11,

# Assay outcomes (PubChem BioAssay)
